GSK3 alpha inh: blocks human GSK-3 alpha kinase | P49840 | ADP-Glo luminescence, 60 min | inhibition, % at 10 µM | 0.1% of 320,000 active | AID 2650;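 in the data active means inhibition above about 50%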;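 further: GST-tagged GSK-3 alpha with peptide substrate and 25 µM ATP; 0% = DMSO neutral wells and 100% = GW8510 positive control wells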
Target sequence (P49840 whole entry, looked up): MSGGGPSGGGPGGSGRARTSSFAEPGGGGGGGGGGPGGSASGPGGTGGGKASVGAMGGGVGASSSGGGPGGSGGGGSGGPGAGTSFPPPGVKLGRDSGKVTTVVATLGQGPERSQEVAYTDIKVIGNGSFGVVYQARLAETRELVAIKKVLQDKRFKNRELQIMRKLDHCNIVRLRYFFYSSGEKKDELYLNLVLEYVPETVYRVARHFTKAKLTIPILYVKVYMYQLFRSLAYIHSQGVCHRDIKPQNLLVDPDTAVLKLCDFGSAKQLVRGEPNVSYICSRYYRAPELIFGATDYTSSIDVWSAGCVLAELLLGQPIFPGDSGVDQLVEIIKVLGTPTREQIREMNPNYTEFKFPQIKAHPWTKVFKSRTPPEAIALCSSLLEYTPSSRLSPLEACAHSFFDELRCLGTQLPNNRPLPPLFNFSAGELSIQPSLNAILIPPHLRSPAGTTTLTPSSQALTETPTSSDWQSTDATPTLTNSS
HSF-1 act: increases HSF-1 driven luciferase reporter signal. activation, % at 9 µM. AID 504408. NIH3T3-HGL HSF-1 luciferase reporter, MG132, 8 h; 100% = twice DMSO control signal. 1.7% of 300,000 active;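 active means mean replicate activation of at least 50% with a set share of replicates each reaching 50%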;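 further: 0% = median of the neutral control wells and 100% = twice that signal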
KLF5 inh: inhibitors of KLF5 expression; DLD-1 KLF5 promoter-luciferase reporter, luminescence; inhibition, % at 5 µM; 0.23% of 290,000 active;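 active means inhibition above a per-plate limit of that plate's mean compound inhibition plus 3 SD, cut at about 60% in these data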;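 further: 0% = DMSO wells and 100% = LY294002 at 200 µM; higher means less KLF5 promoter-driven luciferase light; inactives centre near -14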
aSyn 5UTR inh: 5' untranslated region of α-synuclein, MLPCN primary screen | alpha-synuclein 5'UTR reporter, inhibitor activity | inhibition, % (tested at 7.5 µM) | 0.82% of 300,000 active | AID 1813; in the data active means inhibition above about 60%;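 further: H4 neuroglioblastoma cells stably carrying SNCA 5'UTR luciferase fusion; 0% = DMSO wells and 100% = positive control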
Platelet DG rel: modulates dense granule release in human platelets; AID 1663; human platelet-rich plasma, SFLLRN dense granule ATP release, luminescence; inhibition, %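 (compounds screened at 7.5 µM in platelet-rich plasma)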; 0.22% of 300,000 active;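 active means mean replicate score, as percent of positive control, at or above 50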
HSF1 inhib: HSF1 inhibition | 0.77% of 300,000 active | NIH3T3-HGL HSE-luciferase, MG132-induced, luminescence 8 h; hits give low values | activity change, negative = inhibition, % at 7.5 µM (by protocol) | AID 2098;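 active means more than half of replicate wells show activity change below -50%, luminescence cut by over half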;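 further: luciferase reports HSF-1 transcriptional activity via heat shock element; 0% = median of DMSO wells and -100% = zero luminescence signal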
IEC-6 cytotox: IEC-6 cytotoxicity, counter-screen for KLF5 inhibitors. luminescence viability. inhibition, % at 5 µM. 0.78% of 290,000 active. AID 1825; in the data active means inhibition above about 22%;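 further: 0% = plate median of test compound wells and 100% = cytotoxic reference compound wells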
GSK3B inh: inhibitors of human GSK3beta kinase. P49841. GST-GSK3beta kinase, ADP-Glo luminescence, 60 min; hits give low values. activity score (negative = inhibition), % at 10 µM. 0.038% of 300,000 active;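 active means more than half of replicate wells score below -50%, meaning over 50% inhibition versus plate controls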;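 further: 0% = median DMSO wells and -100% = median GW8510 positive control wells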
Target sequence (P49841 whole entry, looked up): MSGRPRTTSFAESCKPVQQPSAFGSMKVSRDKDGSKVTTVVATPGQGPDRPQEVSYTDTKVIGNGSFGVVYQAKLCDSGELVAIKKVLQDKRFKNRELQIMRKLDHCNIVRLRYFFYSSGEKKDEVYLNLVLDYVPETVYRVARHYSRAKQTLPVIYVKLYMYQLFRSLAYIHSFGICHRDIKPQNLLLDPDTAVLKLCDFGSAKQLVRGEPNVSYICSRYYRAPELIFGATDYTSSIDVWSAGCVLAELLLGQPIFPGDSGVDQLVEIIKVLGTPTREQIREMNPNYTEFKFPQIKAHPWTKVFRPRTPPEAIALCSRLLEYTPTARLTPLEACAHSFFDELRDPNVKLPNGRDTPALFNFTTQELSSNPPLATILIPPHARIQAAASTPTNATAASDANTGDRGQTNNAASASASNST
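test system = GST-tagged human GSK3beta kinase, cell-free | reagent = 25 µM ATP with peptide substrate | dosing = one dose of 10 µM per compound | schedule = 60 min reaction, RT | detection = luminescent ADP-Glo measurement of ADP formed | control set = DMSO neutral wells and GW8510 at 20 µM as positive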
HSP90 refold inh: blocks HSP90-mediated luciferase refolding in reticulocyte lysate. 0.91% of 290,000 active. AID 1789. Rabbit reticulocyte lysate, luciferase refolding luminescence, 3 h. inhibition, % at 5.6 µM;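 active means inhibition above the screen-wide mean plus 3 SD, computed separately per campaign, cut at about 16% in these data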;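 further: 0% = DMSO wells and 100% = 60 µM geldanamycin wells; inhibitors lower the luminescence because luciferase stays unfolded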
Numbers without * were called inactive; x = no result given. These rows are one share of the data; the hit share may differ from the screen's.

Order of values – Platelet DG rel	HSF1 inhib	IEC-6 cytotox	KLF5 inh	HSF-1 act	GSK3 alpha inh	GSK3B inh	HSP90 refold inh	aSyn 5UTR inh
CN(C)CCN(C(=O)C1CCCCC1)c1nc2cc3c(cc2s1)OCO3
 : 6	18	-3	-44	29	2	4	1	-33
Cc1cc(NC(=O)CSc2ccc3nnc(-c4ccccn4)n3n2)no1
 : 24	1	-2	-22	7	-1	3	-4	17
Cc1ccc(S(=O)(=O)NC2(C(F)(F)F)C(=O)Nc3c2c(=O)[nH]c(=O)n3-c2ccccc2)cc1 (centres undefined)
 : 8	-2	10	-9	3	-5	-2	4	24
O=C(c1ccc(Cl)cc1)c1ccc(CN2C(=O)c3ccccc3C2=O)o1
 : 9	9	0	-4	-1	-1	2	0	1
Cc1cc(NC(=O)CSc2ccc3nnc(-c4ccc(Cl)cc4)n3n2)no1
 : 1	4	1	-18	20	-1	2	-2	-2
O=C(NN=Cc1c(F)c(F)c(F)c(F)c1F)c1ccc(NS(=O)(=O)c2cccs2)cc1
 : x	x	x	x	x	0	x	x	x
Cc1cc(C)nc(Sc2nc(Nc3ccccc3)nc(Sc3nc(C)cc(C)n3)n2)n1
 : 10	3	6	-1	-3	0	4	-2	-57
S=C(NCc1ccccc1)Nc1ccc2cn[nH]c2c1
 : 7	-6	-10	-12	-28	23	-18	3	-3
COC(=O)c1ccc2c(c1)N(Cc1nc(-c3ccc(Cl)cc3)oc1C)C(=O)C1CCCN21 (centres undefined)
 : 1	9	x	x	9	1	2	x	7
Nc1nc2ccc([N+](=O)[O-])c(N)c2s1
 : 4	1	8	-9	23	4	0	0	1
CCOc1ccccc1-c1nc(C(N)=O)c2[nH]c(=O)n(-c3ccccc3)c2n1
 : -19	-7	4	-4	11	7	4	4	5
Cc1cc(OCC(=O)O/N=C(\N)Cc2cccs2)ccc1Br
 : 0	5	-4	-5	6	-1	-1	-1	-24
CCOC(=O)c1ccc(NNC(=O)CC)c([N+](=O)[O-])c1
 : 0	-7	3	2	-8	-2	-5	1	5
O=C(O)C(Cc1ccccc1)Nc1ccc([N+](=O)[O-])cc1[N+](=O)[O-] (centres undefined)
 : -8	6	-5	-35	29	3	4	-2	-47
O=C(Cc1cccs1)NC(c1ccccc1)c1ccccc1
 : -1	2	-6	-19	6	-1	1	-1	2
O=C1OC(c2ccc(Br)cc2)=N/C1=C\N1CCCCC1
 : -4	32	4	-37	45	-1	1	-4	-95
Cc1ccc(Nc2ncnc(N)n2)cc1
 : 3	-3	-2	-48	24	3	-4	-8	-49
CCOC(=O)c1cc(-c2ccccc2)nn1CCC#N
 : -51	5	-4	-2	-4	1	4	2	1
NC(=O)c1ccc(S(=O)(=O)N2CCSCC2)cc1
 : 9	-5	-5	-12	4	-1	2	-2	7
O=c1c2ccccc2n2c(=S)[nH]nc2n1-c1ccccc1
 : 1	-5	1	-8	9	9	x	-4	12
CCOC(=O)C1CCN(Cc2ccc(OC)c(C)c2OC)CC1
 : -1	-11	2	-14	-1	-1	3	0	10
c1cc2c(cc1-c1cnc3n1CCC3)OCCO2
 : 3	3	6	-17	3	10	-2	2	-25
O=C(NC1CCCCCCC1)c1cnccn1
 : 7	0	1	2	-8	1	-21	0	-6
CCn1c(Cc2ccccc2)nnc1SCC(=O)Nc1ccc(S(N)(=O)=O)cc1
 : -3	-7	-1	-47	-6	1	2	3	10
CCOc1cc(-c2nc3cc(C)ccn3c2NCC2CCCO2)ccc1O (centres undefined)
 : -1	16	5	-10	31	3	0	7	-9
Cc1ccc2nc(NC(=O)C3CCN(S(=O)(=O)c4cccc5nsnc45)CC3)sc2c1
 : -13	-7	-4	-3	12	-2	6	6	-15
COCCNC(=O)c1cc(-c2ccccc2)nn1CC1CC(c2cccnc2)=NO1 (centres undefined)
 : -3	8	x	x	3	1	-4	x	10
CC(C)C(=O)Nc1cccc(C(=O)NCc2ccc(S(N)(=O)=O)cc2)c1
 : 0	-6	-2	-18	-4	x	-3	-3	5
COc1cc(/C=C2\SC(=Nc3ccccc3OC)NC2=O)ccc1O
 : 16	-3	7	16	-15	8	-6	-6	-1
CCS(=O)(=O)Nc1ccc(-c2ccc(NS(=O)(=O)CC)c(OC)c2)cc1OC
 : 2	-2	1	5	-9	4	2	-1	8
Cc1cc2n(n1)C(c1ccc(O)cc1)Nc1ccccc1-2 (centres undefined)
 : 5	7	0	12	-1	15	2	-2	-16
Cc1cccc2cc(C#N)c(NCCCn3ccnc3)nc12
 : 2	-5	1	-3	-16	3	-2	1	6
CC(=O)N(CCC(c1ccco1)C(C)C)Cc1ccc(OC(C)C)cc1 (centres undefined)
 : x	x	3	-5	x	-5	2	2	x
O=C(Cn1c(=O)n(Cc2ccco2)c(=O)c2ccccc21)Nc1cccc(Cl)c1
 : 1	3	0	-38	-4	-2	3	0	23
CN(C(=O)CCc1ccccc1)c1nnc(-c2ccncc2)s1
 : -2	3	0	-9	18	-1	3	2	-11
CCC(=O)Nc1ccc(-c2nn3c(C)nnc3s2)cc1C
 : 2	2	2	-8	6	1	2	1	-32
Cc1ccccc1C(=O)N1CCC(C(=O)Nc2nc3ccc(F)cc3s2)CC1
 : 3	3	x	x	-5	1	-2	x	-19
O=C(Cc1ccccc1)NC1CCN(S(=O)(=O)c2cccc(F)c2)CC1
 : -1	1	-5	-28	-5	-1	-1	-2	-3
CCOC(=O)c1cc(-c2ccccc2)nn1CC1CC(c2ccc(OC)cc2)=NO1 (centres undefined)
 : x	x	x	x	x	2	x	x	x
C=CCn1c(=O)c2ccccc2n2c(=S)[nH]nc12
 : 2	-6	-3	-7	5	10	-5	1	0
COc1ccc2nc(NC(=O)C34CC5CC(CC(NC(C)=O)(C5)C3)C4)sc2c1
 : 4	3	-16	-65	7	-5	-2	-2	-94
NS(=O)(=O)c1ccc(NC(=O)CSc2nnc(COc3ccccc3Cl)n2C2CC2)cc1
 : x	x	1	-24	x	-1	x	-3	x
COC(=O)c1ccccc1NC(=O)C1CC(c2ccc(F)cc2)=NO1 (centres undefined)
 : -1	0	4	-2	23	-4	-1	-3	-2
C=CCNc1nc(-c2sc(NC(C)=O)nc2C)cs1
 : -12	0	11	-14	-7	2	-4	1	-40
CC1=CC(C)(C)Nc2ccc(OC(=O)c3ccco3)cc21
 : -4	-23	-4	-12	-30	3	-1	17*	13
C=CCn1nc(-c2ccccc2)cc1C(=O)OCC
 : 13	-15	x	x	-28	-2	0	x	8
Cc1nc2ccc(NC(=O)N3CCSCC3)cc2s1
 : 3	-60*	4	-25	-64	5	1	8	-51
O=C(NCc1cccnc1)c1sc2cc(Cl)ccc2c1Cl
 : 5	5	8	-21	6	x	1	3	9
CC(=O)c1cccc(NC(=O)C2=CC(c3cccs3)=NS(=O)(=O)N2C)c1
 : 13	-3	0	-34	-12	11	1	-3	-6
COc1ccc2nc(N3CCC(C)CC3)c(C#N)cc2c1
 : 0	48	-4	-41	48	7	12	2	-175
COCCOc1cc(N)c(Cl)cc1Cl
 : 3	-7	4	-30	-12	1	1	1	6
Cc1ccc2nc(NC(=O)C3CCCN3C(=O)OC(C)(C)C)sc2c1 (centres undefined)
 : 14	7	-10	2	2	-2	0	-5	-47
Cc1ccc(NCc2nnc(SCC(=O)NCc3ccco3)n2CC2CCCO2)c(C)c1 (centres undefined)
 : 9	1	-9	-31	-9	-2	2	-3	3
Cc1ccc(/C=C2/Sc3ccc(C(=O)N4CCN(c5ccccn5)CC4)cc3NC2=O)cc1
 : -8	-5	-8	-24	-8	-2	5	1	2
Cc1cccc(C(=S)N2CCOCC2)n1
 : x	x	x	x	x	-3	x	x	x
Cc1ccccc1Nc1nc(-c2cccnc2)nc2ccccc12
 : -18	3	-1	-5	29	5	-7	-3	0
COc1ccc(Nc2nc(CC(C)=O)ns2)cc1OC
 : 8	0	-7	-14	-10	2	-4	-1	12
O=C(NCC1CC1)c1cc(-c2ccccc2)nn1CC1CC(c2cccnc2)=NO1 (centres undefined)
 : -3	0	x	x	2	0	0	x	-10
O=C1CC(O)(C(F)F)Oc2ccc3ccccc3c21 (centres undefined)
 : -1	2	-3	1	2	-1	-1	2	0
CCOC(=O)C1CCN(Cc2cn[nH]c2-c2ccc(C)cc2)CC1
 : -1	1	3	-13	0	-2	-1	1	5

(next part)
Order of values – Platelet DG rel	HSF1 inhib	IEC-6 cytotox	KLF5 inh	HSF-1 act	GSK3 alpha inh	GSK3B inh	HSP90 refold inh	aSyn 5UTR inh
C/C(=N\NC(=O)c1ccc(NS(=O)(=O)c2cccs2)cc1)c1ccc(C(C)(C)C)cc1
 : 11	-3	2	-21	-1	-2	-1	4	-14
Cc1cc2n(n1)C(c1ccc3c(c1)OCO3)Nc1ccccc1-2 (centres undefined)
 : 4	-2	0	1	-1	4	-1	-1	-39
COc1ccc2[nH]c3c(=O)n(Cc4ccco4)cnc3c2c1
 : 0	5	4	2	7	1	1	2	-65
Cc1ccc(Nc2ncnc(N)n2)cc1C
 : -4	7	2	-7	13	-6	-1	4	-16
COc1cccc(C(=O)N2CCN(Cc3ccccc3Br)CC2)c1
 : -2	-8	0	-5	-10	-4	-2	-4	-7
COC(=O)C1=NN(c2ccccc2OC)C2C(=O)N(c3ccccc3OC)C(=O)C12 (centres undefined)
 : 1	-2	4	-15	18	-2	1	-6	13

HSF1 inhib: entries above that show a hit
Compound | Platelet DG rel | HSF1 inhib | KLF5 inh | HSF-1 act | GSK3 alpha inh | GSK3B inh | HSP90 refold inh | aSyn 5UTR inh
Cc1nc2ccc(NC(=O)N3CCSCC3)cc2s1 | 3 | -60* | -25 | -64 | 5 | 1 | 8 | -51

Entries listed so far with two or more sulfur atoms:
Order of values – Platelet DG rel	HSF1 inhib	IEC-6 cytotox	KLF5 inh	HSF-1 act	GSK3 alpha inh	GSK3B inh	HSP90 refold inh	aSyn 5UTR inh
O=C(NN=Cc1c(F)c(F)c(F)c(F)c1F)c1ccc(NS(=O)(=O)c2cccs2)cc1
 : x	x	x	x	x	0	x	x	x
Cc1cc(C)nc(Sc2nc(Nc3ccccc3)nc(Sc3nc(C)cc(C)n3)n2)n1
 : 10	3	6	-1	-3	0	4	-2	-57
NC(=O)c1ccc(S(=O)(=O)N2CCSCC2)cc1
 : 9	-5	-5	-12	4	-1	2	-2	7
CCn1c(Cc2ccccc2)nnc1SCC(=O)Nc1ccc(S(N)(=O)=O)cc1
 : -3	-7	-1	-47	-6	1	2	3	10
Cc1ccc2nc(NC(=O)C3CCN(S(=O)(=O)c4cccc5nsnc45)CC3)sc2c1
 : -13	-7	-4	-3	12	-2	6	6	-15
CCS(=O)(=O)Nc1ccc(-c2ccc(NS(=O)(=O)CC)c(OC)c2)cc1OC
 : 2	-2	1	5	-9	4	2	-1	8
NS(=O)(=O)c1ccc(NC(=O)CSc2nnc(COc3ccccc3Cl)n2C2CC2)cc1
 : x	x	1	-24	x	-1	x	-3	x
C=CCNc1nc(-c2sc(NC(C)=O)nc2C)cs1
 : -12	0	11	-14	-7	2	-4	1	-40
Cc1nc2ccc(NC(=O)N3CCSCC3)cc2s1
 : 3	-60*	4	-25	-64	5	1	8	-51
CC(=O)c1cccc(NC(=O)C2=CC(c3cccs3)=NS(=O)(=O)N2C)c1
 : 13	-3	0	-34	-12	11	1	-3	-6
C/C(=N\NC(=O)c1ccc(NS(=O)(=O)c2cccs2)cc1)c1ccc(C(C)(C)C)cc1
 : 11	-3	2	-21	-1	-2	-1	4	-14

Screening results from PubChem.
